Mtb MenB inh: Mtb MenB enzyme inhibition | P9WNP5 | MenB enzyme assay, absorbance read-out; some hits fall short of the stated cut | inhibition, %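 (about 12 µg/mL by stock and volumes)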 | hit rate 0.43% among 100,000 | AID 540299;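 active = mean of two replicates above 30%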;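 also: 0% = no compound and 100% = wells with inactive enzyme; the first replicate is given; strong numbers were not always called active; inactives centre near -10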
Target sequence (P9WNP5 whole entry, looked up): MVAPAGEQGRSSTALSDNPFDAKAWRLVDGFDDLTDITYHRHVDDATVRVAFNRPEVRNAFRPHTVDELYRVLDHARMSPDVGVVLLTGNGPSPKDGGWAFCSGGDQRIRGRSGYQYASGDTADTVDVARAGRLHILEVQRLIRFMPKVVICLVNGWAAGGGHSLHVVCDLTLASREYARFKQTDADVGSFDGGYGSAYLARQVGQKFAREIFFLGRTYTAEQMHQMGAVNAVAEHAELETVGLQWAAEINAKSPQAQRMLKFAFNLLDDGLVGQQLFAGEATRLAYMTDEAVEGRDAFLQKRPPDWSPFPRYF
PV pol inh: poliovirus RNA polymerase inhibition | P03300 | poliovirus polymerase elongation, fluorescence polarization; hits give low values | % elongation, % (compound at 16.7 µg/mL) | hit rate 0.66% among 150,000 | AID 588519; in the data active = % elongation below about 90%; also: some results filed as inactive read as strong as hits
Target sequence (P03300 1749-2209 limits assumed): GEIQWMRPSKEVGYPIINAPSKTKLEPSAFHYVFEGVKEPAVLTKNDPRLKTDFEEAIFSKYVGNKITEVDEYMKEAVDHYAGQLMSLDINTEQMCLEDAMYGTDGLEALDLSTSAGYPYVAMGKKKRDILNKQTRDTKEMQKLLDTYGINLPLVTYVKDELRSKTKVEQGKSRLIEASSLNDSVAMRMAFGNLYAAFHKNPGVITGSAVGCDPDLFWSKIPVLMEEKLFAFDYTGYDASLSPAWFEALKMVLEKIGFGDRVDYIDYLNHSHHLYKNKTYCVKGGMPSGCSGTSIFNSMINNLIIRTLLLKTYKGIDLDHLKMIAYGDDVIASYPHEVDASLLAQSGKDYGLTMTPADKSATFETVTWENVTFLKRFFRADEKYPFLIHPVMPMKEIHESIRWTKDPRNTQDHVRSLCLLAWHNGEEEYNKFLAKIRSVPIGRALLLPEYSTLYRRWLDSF
MbtI inh: inhibitors of Mycobacterium tuberculosis siderophore enzyme MbtI. P9WFX0. purified MbtI enzyme, fluorescence intensity read-out. inhibition, %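 (about 17 µg/mL by stock and volumes)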. hit rate 0.89% among 100,000;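 active = above 50% in both replicates, above 80% if mildly self-fluorescent; inactive = the rest, strongly fluorescent compounds included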;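 also: 0% = mean of negative and 100% = mean of positive controls; one replicate is shown; some compounds called inactive have numbers as strong as hits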
PV pol inh intensity: second read-out of PV pol inh, no call of its own (marks repeat the call); % elongation; measured here: total intensity read-out; formula for this scale not given here;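 total fluorescence in place of polarization; lower means less elongation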
* marks the source's active call; other numbers are inactive results; i = inactive; . = not tested or not shown.

compound	Mtb MenB inh	PV pol inh	PV pol inh intensity	MbtI inh
O=S(=O)(c1ccc(Cl)cc1)N1CCc2ccccc21	-9	45	249	.
Cc1ccc(Cl)cc1-n1nnc(-c2nc(-c3ccc4c(c3)OCO4)no2)c1N	-18	103	101	-12
Cc1nc(C#N)c(Nc2ccccc2)o1	.	99	106	-2
CCNC(=O)Cn1cc(C#N)c2ccccc21	22	101	104	-2
O=C(O)CNS(=O)(=O)c1ccc2ccccc2c1	-17	103	100	-16
Cc1cccc(-c2nnc(SCC(=O)N3CCCCC3C)o2)c1 (stereo not drawn)	-25	100	94	-3
CSc1[nH]n2c(=O)cc(C)nc2c1S(=O)(=O)c1ccccc1	-4	102	103	6
COCC(=O)NC(c1ccccc1)c1ccccc1	-17	100	102	-10
Cc1nc2c(C(=O)NCc3ccccc3)c[nH]n2c(=O)c1Cl	-11	103	106	58
COc1ccc(NS(=O)(=O)c2ccc3oc4ccccc4c3c2)cc1OC	0	100	103	-6

Next entries follow.
compound	Mtb MenB inh	PV pol inh	PV pol inh intensity	MbtI inh
Nc1ccc(/C=C/c2ccccc2)cc1	3	106	101	.
CCN(CC)c1nc(-c2ccccc2)nc2ccccc12	1	100	102	31
Cc1ccccc1-n1c(SCC(=O)O)nc2sc3c(c2c1=O)CC(C)(C)OC3	-4	102	102	23
COc1ccc(S(=O)(=O)NCc2csc(-c3ccccc3)n2)cc1OC	-11	105	109	-2
O=C(CN1C(=O)C(c2ccccc2)=NC12CCCC2)Nc1ccccc1	-19	105	109	10
O=C(O)C1CCCN1/C=C/C(=O)C(F)(F)F (stereo not drawn)	-19	103	101	18
CC1(C)CC2CC(C)(CN2C(=O)Nc2ccccc2)C1 (stereo not drawn)	-18	102	103	-9
COc1ccc(NC(=O)CCNS(=O)(=O)c2ccc3c(c2)c(=O)n(C)c(=O)n3C)cc1	-22	102	101	-5
COc1ccc(OCC2NCCc3cc(OC)c(OC)cc32)cc1 (stereo not drawn)	-12	104	105	5
COc1ccc(N2C(=O)C3SC(N)=C(C#N)C4(CCCCC4)C3C2=O)cc1 (stereo not drawn)	-35	.	.	-2

Remaining list, next part:
compound	Mtb MenB inh	PV pol inh	PV pol inh intensity	MbtI inh
COc1cc(/C=C2\SC(=O)N(C)C2=O)ccc1OCC(=O)O	-17	102	103	-1
COc1ccc(-c2[nH]ncc2CN2CCC(O)(c3ccc(Cl)cc3)CC2)cc1	-16	102	103	3
CC1CC2C3CCC4=CC(=O)C=C[C@]4(C)[C@@]3(F)[C@@H](O)C[C@]2(C)[C@@]1(O)C(=O)CO (stereo partly drawn)	11	101	103	-4
Nc1ccc2c(c1)C/C(=C/c1ccco1)C2=O	i	45	242	6
O=C(COc1ccc(Cl)cc1)N/N=C\c1cn(CC(=O)N2CCOCC2)c2ccccc12	0	104	103	-7
O=C1CC(=O)N(c2ccccc2)C(=O)N1	-93	98	103	-15
O=C(CC1NC(=O)NC1=O)NC1(C(=O)NC2CCCC2)CCCCC1 (stereo not drawn)	-33	100	104	0
O=C(CO/N=C/c1ccccc1OC(F)F)N1CCN(C(=O)c2ccco2)CC1	-5	99	103	-11
CC(C)(C)NS(=O)(=O)c1cccc2c(N)cccc12	4	99	103	6
O=C(O)CCS(=O)(=O)Nc1ccccc1	-13	101	99	4

Further structures follow.
compound	Mtb MenB inh	PV pol inh	PV pol inh intensity	MbtI inh
Cn1nc(C(=O)OC2CCCCC2=O)c2ccccc2c1=O (stereo not drawn)	-23	103	108	0
CN/N=C(\Cc1nc2ccccc2[nH]1)c1ccccc1	-25	103	109	-34
O=C(OCC(=O)N1CCCCC1)c1ccccc1I	.	106	108	-7
N#Cc1ccccc1S(=O)(=O)N1CCN(C(=O)c2cc(C3CC3)nn2-c2ccccc2)CC1	-33	109	126	0
CCOC(=O)c1ccc(CNC(=O)CSc2nnc(-c3ccc(OC)cc3)o2)cc1	-12	102	104	-5
CC(C)CCn1nnnc1CN1CCN(Cc2ccc3c(c2)OCO3)CC1	-35	103	100	-6
O=C(NCCC1=CCCCC1)C1CCN(S(=O)(=O)N2CCCC2)CC1	9	104	100	7
Cc1ccc2c(c1)N(C(=O)N1CCCC(C(=O)NCCCc3ccccc3)C1)CC(C)O2 (stereo not drawn)	-2	101	104	-6
NC(=O)C1CCCN1S(=O)(=O)c1ccc2ccccc2c1 (stereo not drawn)	-60	102	101	7
C/C(=C\C(=O)C(F)(F)F)NC1CCCCC1	-25	102	107	10

Next entries:
compound	Mtb MenB inh	PV pol inh	PV pol inh intensity	MbtI inh
CN1C(=O)C(CC(=O)Nc2ccc(F)cc2)N(NC(=O)c2cccc(F)c2)C1=S (stereo not drawn)	-5	102	96	.
O=C(COC(=O)Cc1cccc(C(F)(F)F)c1)NC1CC1	.	101	106	-17
CCOc1cccc(CNc2ccc(N3CCCC3)cc2)c1	-19	100	100	-5
COc1ccccc1N1CCN(C(=O)c2ccc(S(=O)(=O)N3CCCCC3)cc2)CC1	-20	101	104	-14
CN1CCN(c2ccc(CNC(=O)c3cccnc3Oc3ccc(Cl)cc3)cc2)CC1	-6	105	110	-8
CCN1CSC(=S)N(Cc2ccccc2)C1	-58	101	105	0
CC(Sc1nnc(C2CC2)n1C1CC1)C(=O)c1c[nH]c2ccccc12 (stereo not drawn)	-13	108	116	-18
O=C(COC(=O)/C=C/c1ccc(Br)o1)Nc1cccc2nsnc12	-14	.	.	38
CC(C)(C)c1ccc(Cn2c(CO)cc3sccc32)cc1	-35	101	103	-8
Cc1cc(C(=O)N2CCN(S(=O)(=O)c3ccccc3)CC2)no1	-16	105	102	-5

The listing continues.
compound	Mtb MenB inh	PV pol inh	PV pol inh intensity	MbtI inh
CCOc1cc2c(cc1OCC)C1C(C(=O)N3CCCCC3)c3ccccc3C(=O)N1CC2 (stereo not drawn)	-19	101	106	-8
CCOC(=O)c1cc(-c2csc(Nc3ccc(C)cc3)n2)on1	-6	102	96	28
COc1ccc(OC)c(CCNC(=O)c2sc(-n3cccc3)nc2C)c1	-4	101	105	-2
CCCN1C=C(C(=O)OC)C(c2cccc(Cl)c2)C(C(=O)OC)=C1	-28	100	104	-44
Nc1cccc(CCc2ccncc2)c1	-6	100	104	-32
O=C(O)CNC(=O)c1nc2ncccn2n1	1	101	101	7
Cn1c2ccc(Cl)cc2c2nc3ccccc3nc21	-13	101	103	7
N#CC(C(=O)CSc1nc2ccccc2[nH]1)c1ccccc1 (stereo not drawn)	-15	99	88	8
CCN(c1cccc(C)c1)S(=O)(=O)c1ccc(OC)cc1	-15	101	104	-15
COc1cccc(-c2cc(C(=O)Nc3sc4c(c3C#N)CCC(C(C)(C)C)C4)no2)c1 (stereo not drawn)	-23	104	104	15

Next section
compound	Mtb MenB inh	PV pol inh	PV pol inh intensity	MbtI inh
Cc1nc(CNCc2ccc(CN(C)C)cc2)cs1	-9	95	99	-3
O=C1OC2CC3CC2C1C3C(=O)N1CCc2ccccc21 (stereo not drawn)	-8	103	101	-5
CCOC(=O)N1CCN(C(=O)Cn2cnc3c(cnn3-c3ccc(C)cc3C)c2=O)CC1	-11	104	104	-3
O=C1CCC(c2cccs2)=NN1CO	-22	103	94	6
O=C(Cn1nc(-c2nccc3ccccc23)oc1=O)N1CCCc2ccccc21	-11	101	100	-5
Cc1cccc(S(=O)(=O)NCc2ccco2)c1	-17	101	101	-20
O=C(CSc1cn(Cc2ccccc2)c2ccccc12)Nc1nccs1	-2	101	103	1
CC1CC(=O)N(N(C)C)C(C#N)(C#N)C1(C#N)C#N (stereo not drawn)	-10	124	131	.
CC(=O)N[C@@H](Cc1c[nH]c2ccccc12)C(=O)N1CCC(C)CC1	0	105	107	-16
CCCNCC(O)COc1ccccc1 (stereo not drawn) (tested in a mixture with another compound)	-5	104	104	.

Reprinted from the listing (19 entries):
compound	Mtb MenB inh	PV pol inh	PV pol inh intensity	MbtI inh
CCOc1cc2c(cc1OCC)C1C(C(=O)N3CCCCC3)c3ccccc3C(=O)N1CC2 (stereo not drawn)	-19	101	106	-8
CCOC(=O)c1cc(-c2csc(Nc3ccc(C)cc3)n2)on1	-6	102	96	28
COc1ccc(OC)c(CCNC(=O)c2sc(-n3cccc3)nc2C)c1	-4	101	105	-2
CCCN1C=C(C(=O)OC)C(c2cccc(Cl)c2)C(C(=O)OC)=C1	-28	100	104	-44
Nc1cccc(CCc2ccncc2)c1	-6	100	104	-32
O=C(O)CNC(=O)c1nc2ncccn2n1	1	101	101	7
Cn1c2ccc(Cl)cc2c2nc3ccccc3nc21	-13	101	103	7
N#CC(C(=O)CSc1nc2ccccc2[nH]1)c1ccccc1 (stereo not drawn)	-15	99	88	8
CCN(c1cccc(C)c1)S(=O)(=O)c1ccc(OC)cc1	-15	101	104	-15
COc1cccc(-c2cc(C(=O)Nc3sc4c(c3C#N)CCC(C(C)(C)C)C4)no2)c1 (stereo not drawn)	-23	104	104	15
Cc1nc(CNCc2ccc(CN(C)C)cc2)cs1	-9	95	99	-3
O=C1OC2CC3CC2C1C3C(=O)N1CCc2ccccc21 (stereo not drawn)	-8	103	101	-5
CCOC(=O)N1CCN(C(=O)Cn2cnc3c(cnn3-c3ccc(C)cc3C)c2=O)CC1	-11	104	104	-3
O=C1CCC(c2cccs2)=NN1CO	-22	103	94	6
O=C(Cn1nc(-c2nccc3ccccc23)oc1=O)N1CCCc2ccccc21	-11	101	100	-5
Cc1cccc(S(=O)(=O)NCc2ccco2)c1	-17	101	101	-20
O=C(CSc1cn(Cc2ccccc2)c2ccccc12)Nc1nccs1	-2	101	103	1
CC1CC(=O)N(N(C)C)C(C#N)(C#N)C1(C#N)C#N (stereo not drawn)	-10	124	131	.
CC(=O)N[C@@H](Cc1c[nH]c2ccccc12)C(=O)N1CCC(C)CC1	0	105	107	-16

Later entries.
compound	Mtb MenB inh	PV pol inh	PV pol inh intensity	MbtI inh
CCN(Cc1ccccc1)Cc1cc(Cl)ccc1O	-33	101	98	4
CN(C)c1ccc(C2C3C=CC(C3)C2(C#N)C(=O)O)c(Br)c1 (stereo not drawn)	.	102	102	-12
O=S(=O)(NCC(O)c1ccccc1)c1ccccc1 (stereo not drawn)	13	103	106	-9
CCn1c(C)c(C2=CCN(S(=O)(=O)c3ccccc3)CC2)c2ccccc21	-14	104	109	6
COc1ccccc1Nc1nn(-c2ccccc2)c2c1C(=O)CCC2	-12	101	105	-18
Cc1c2c(=O)n(-c3nc4ccccc4s3)nc-2cc(O)n1Cc1ccccc1	-70	102	218	.
COC(=O)CNC(=O)c1ccccc1	.	100	102	-11
O=C(CSCc1cccc(Br)c1)N/N=C/c1ccco1	-28	102	104	6
O=C(CSc1nnc2ccccn12)Nc1ccc(N2CCCCC2)cc1	-23	97	106	-4
Cc1c(C(=O)OC2CCOC2=O)oc2c1ccc1ccccc12 (stereo not drawn)	-10	107	107	102

Additional compounds follow.
compound	Mtb MenB inh	PV pol inh	PV pol inh intensity	MbtI inh
Cc1ccc(S(=O)(=O)NC(CC(C)C)C(=O)N2CCC(C)CC2)cc1 (stereo not drawn)	-31	101	91	-3
C=C[C@H]1CN2CCC1C[C@@H]2[C@@H](O)c1ccnc2ccccc12 (stereo partly drawn)	-3	102	101	-11
Cn1c(SCc2ccccc2)nnc1C1CCN(C(=O)Nc2ccccc2)CC1	5	100	101	-7
CSc1ccc(CN(C)C(=O)Cn2[nH]c(=O)c3ccccc3c2=O)cc1	4	105	114	-6
CN1CCCCC1c1cccnc1N (stereo not drawn)	0	100	104	2
Cc1nn(-c2ccc(F)cc2)c(-n2cccc2)c1C(=O)N1CCCCC1	0	101	101	19
Cn1/c(=N/NC(=O)c2ccccc2)sc2ccccc21	-10	98	98	5
S=C(NCc1ccco1)NCC1CC(c2ccccc2)=NO1 (stereo not drawn)	3	104	107	-5
CC(C)(CNC(=O)c1cc2ccccc2o1)N1CCOCC1	-7	106	111	5
O=C(CN1C(=O)CC(c2ccccc2)S(=O)(=O)c2ccccc21)Nc1ccccc1C(F)(F)F (stereo not drawn)	-1	100	100	4

Carrying on.
compound	Mtb MenB inh	PV pol inh	PV pol inh intensity	MbtI inh
Cc1coc2cc3oc(=O)c(CCC(=O)NCc4ccccc4)c(C)c3cc12	10	102	104	31
CCc1ccc(C=Nc2ccc(O)cc2)s1	-45	99	101	22
CC1(C)CC(=O)C2=C(C1)OC(N)=C(C#N)C2c1cn(Cc2cccc(F)c2)c2ccccc12 (stereo not drawn)	-128	101	99	-4
CCc1cccc(-n2c(=O)c3cccnc3n2CC(=O)Nc2ccccc2OC)c1	4	99	102	i
Cc1cccc(-n2c(=O)c3c4c(sc3n3c(=S)[nH]nc23)CCC4)c1	-1	98	104	10
CC(C)c1ccc(NC(=O)C(c2ccc3c(c2)OCO3)N2CCC3(CC2)OCCO3)cc1 (stereo not drawn)	-28	100	102	-9
Cc1ccc(-c2cc(=O)c3ccc4ccccc4c3o2)cc1	-7	102	104	2
CCN(C(=O)c1ccc(OC(C)=O)cc1)c1ccccc1C	-2	103	103	.

Screens (PubChem)
